supercomplex z – modulators of mitochondrial supercomplex assembly, cell-based, luminescence, Hoechst nuclei count (AID 1645838). Cells, luminescence/Hoechst cell count ratio, supercomplex reporter; active compounds read high. z-score at 11 µM unless noted. 5% of 2,000 active;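 active = mean z-score of two plates above 1.96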;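 note: control cybrid cells; higher means more mitochondrial supercomplex formation; U2OS-based cells read after two days; 0 = mean of sample wells on the plate; doses worked out from stocks diluted about 900-fold with the highest of each compound shown; many of its hits are not listed in these tables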
supercomplex z cell count – also measured in supercomplex z; calls as there; cell count; measured here: cell number, Hoechst nuclei count;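 nuclei per well as mean of two plates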
* hit, by the source's call. The list is partial; the hit share may differ from the screen's.

SMILES | supercomplex z | supercomplex z cell count
CCCCCC(CC(=O)NO)C(=O)NC(C(=O)N1CCCC1CO)C(C)C (stereo not given) | -0.51 | 5200
Cc1cc(OCCCS(C)(=O)=O)cc(C)c1-c1cccc(COc2ccc3c(c2)OCC3CC(=O)O)c1 (stereo not given) | -0.39 | 6286
COc1cc(C(=O)N(CCC2CCCN2C)CC(C)=Cc2ccccc2F)cc(OC)c1OC (stereo not given) | 0.65 | 5818
Clc1cccc(-c2nnnn2Cc2cccnc2)c1Cl | -0.55 | 6394
CC(C)CC(NC(=O)C(O)C(N)Cc1ccccc1)C(=O)O (stereo not given) | -0.78 | 5850
CCCCCCCCCCCCCCOc1ccc(C(=O)O)o1 | -0.22 | 5146
S=C=Nc1cccc(NC(=S)NCCCCNC(=S)Nc2cccc(N=C=S)c2)c1 | 0.86 | 3118

Part of the list above, set out differently:
> CCCCCC(CC(=O)NO)C(=O)NC(C(=O)N1CCCC1CO)C(C)C (stereo not given)
  supercomplex z: -0.51; supercomplex z cell count: 5200

> Cc1cc(OCCCS(C)(=O)=O)cc(C)c1-c1cccc(COc2ccc3c(c2)OCC3CC(=O)O)c1 (stereo not given)
  supercomplex z: -0.39; supercomplex z cell count: 6286

An excerpt taken from the entries so far:
SMILES | supercomplex z | supercomplex z cell count
CCCCCC(CC(=O)NO)C(=O)NC(C(=O)N1CCCC1CO)C(C)C (stereo not given) | -0.51 | 5200
Cc1cc(OCCCS(C)(=O)=O)cc(C)c1-c1cccc(COc2ccc3c(c2)OCC3CC(=O)O)c1 (stereo not given) | -0.39 | 6286
COc1cc(C(=O)N(CCC2CCCN2C)CC(C)=Cc2ccccc2F)cc(OC)c1OC (stereo not given) | 0.65 | 5818

Bioassay records from PubChem BioAssay.
